Vaccinia stage – Vaccinia orthopox stage-specific inhibition; Vaccinia-infected cells, mCherry/Venus stage reporter fluorescence; active compounds read low; some inactives read as strong as hits; activity change (mCherry), % (concentration not given with the values); hit rate 0.01% among 89,000; AID 1053133;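 active = mCherry past -33% and 40 or more points under the early reporter, replicates agreeing; inconclusive = past -33% without that gap or agreement; tested in A549 cells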;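 note: scaled between vehicle wells and reference inhibitor wells; 23 nL library stock went into each well; one replicate is shown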
Vaccinia stage Venus – further read-out of Vaccinia stage, marked with its call; activity change (Venus), %; measured here: Venus reporter, other viral stage;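 negative = less Venus signal; first of two replicates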
* marks the source's active call; other numbers are inactive results; ? = inconclusive; . = no result given; & = joins results of further samples.

SMILES	Vaccinia stage	Vaccinia stage Venus
CN(C)CC(=O)Nc1ccc2c(c1)[C@H]1C[C@H](CC(=O)NCc3ccccn3)O[C@H](CO)[C@H]1O2	5	7
C[C@@H]1CN([C@@H](C)CO)C(=O)c2cc(NC(=O)Cc3ccccc3)ccc2O[C@@H](C)CCCCO[C@@H]1CN(C)S(=O)(=O)c1ccc(Cl)cc1	-8	-13
COc1ccc(CN(C)C[C@H]2Oc3ccc(NS(=O)(=O)c4cccs4)cc3CC(=O)N([C@@H](C)CO)C[C@H]2C)cc1	-2	-7
COc1ccc(C#Cc2cnc3c(c2)C(=O)N([C@H](C)CO)C[C@H](C)[C@H](CN(C)C(=O)Nc2c(C)noc2C)O3)cc1OC	15	5
COCC#Cc1cnc2c(c1)C(=O)N([C@@H](C)CO)C[C@H](C)[C@@H](CN(C)C(=O)CCN1CCCCC1)O2	16	-7
C[C@H](O)C#Cc1ccc2c(c1)O[C@@H](CN(C)C(=O)c1ccncc1)[C@H](C)CN([C@@H](C)CO)S2(=O)=O	13	7
COCC#Cc1cnc2c(c1)C(=O)N([C@H](C)CO)C[C@@H](C)[C@@H](CN(C)C(=O)NC1CCCC1)O2	-4	-2
C[C@@H]1CCCCO[C@H](CN(C)Cc2ccncc2)[C@@H](C)CN([C@H](C)CO)C(=O)c2cc(NC(=O)c3ccccc3)ccc2O1	-5	-3
COC(=O)N(C)C[C@H]1OCc2cnnn2CCCC(=O)N([C@@H](C)CO)C[C@H]1C	11	19
C[C@H]1CN([C@@H](C)CO)S(=O)(=O)c2ccc(/C=C/c3ccccc3)cc2O[C@H]1CN(C)C(=O)NC1CCCCC1	?	.
CN(C)C(=O)c1ccc(-c2ccc([C@@H]3[C@@H](CO)N4C(=O)CN(C(=O)C5CC5)C[C@H]34)cc2)cc1	4	-2
COc1cccc(S(=O)(=O)N[C@H]2C=C[C@@H](CC(=O)NCc3ccc(F)cc3)O[C@@H]2CO)c1	3	1
O=C(C[C@@H]1CC[C@@H](NC(=O)c2cnccn2)[C@H](CO)O1)NCc1ccccc1F	6	2
CCC(=O)N1[C@H](CO)[C@@H](c2ccccc2-c2ccccc2)[C@@H]1C#N	6	1
Cc1noc(C)c1NC(=O)Nc1ccc2c(c1)C(=O)N([C@H](C)CO)C[C@H](C)[C@H](CN(C)CC1CCCCC1)O2	19	10
C[C@H](CO)N1C[C@H](C)[C@H](CN(C)C(=O)[C@@H](Cc2ccccc2)N(C)C)OCc2ccccc2-c2ccccc2C1=O	-31	-12
O=C(C[C@H]1CC[C@H](NC(=O)NC2CCCCC2)[C@H](CO)O1)NCc1ccccc1	14	24
C[C@@H]1CN([C@@H](C)CO)C(=O)Cc2cc(NC(=O)Nc3ccc4c(c3)OCO4)ccc2O[C@@H]1CN(C)S(=O)(=O)c1ccccc1	-1	4
CCCC#Cc1ccc2c(c1)O[C@@H](CN(C)C(=O)c1ccccn1)[C@H](C)CN([C@@H](C)CO)S2(=O)=O	-10	-6
CC(=O)N1[C@@H](CO)[C@@H]2c3ccccc3N(S(=O)(=O)c3ccccc3)C[C@@H]21	-5	6
CCCNC(=O)N(C)C[C@H]1Oc2ncc(-c3ccc(C(=O)N(C)C)cc3)cc2C(=O)N([C@H](C)CO)C[C@@H]1C	15	7
CN1C(=O)c2cc(NC(=O)NC3CCCC3)ccc2OC[C@@H]2O[C@H](CC(=O)O)CC[C@H]21	2	14
O=C(Cc1ccccn1)NCC[C@@H]1CC[C@@H](NC(=O)Nc2ccccc2)[C@@H](CO)O1	9	9
O=C(CN1CCOCC1)N1CCCCN2[C@H](CO)[C@@H](c3ccc(/C=C/c4ccccc4)cc3)[C@H]2C1	-19	-25
O=C(C1CCCC1)N1[C@H](CO)[C@@H]2c3ccccc3N(S(=O)(=O)c3ccccc3)C[C@@H]21	3	-1
(further entries)
SMILES	Vaccinia stage	Vaccinia stage Venus
C[C@H](CO)N1C[C@H](C)[C@@H](CN(C)C(=O)NC2CCCCC2)Oc2c(NC(=O)C3CCOCC3)cccc2C1=O	3	5
Cc1ccc(S(=O)(=O)Nc2cccc3c2O[C@H](CN(C)Cc2ccccc2)[C@H](C)CN([C@@H](C)CO)C3=O)cc1	12	5
CC(C)NC(=O)N(C)C[C@@H]1OCCCC[C@@H](C)Oc2ccc(NC(=O)NC3CCCCC3)cc2C(=O)N([C@@H](C)CO)C[C@H]1C	13	12
C[C@@H]1CCCCO[C@H](CN(C)Cc2ccc3c(c2)OCO3)[C@@H](C)CN([C@@H](C)CO)C(=O)c2cc(NS(C)(=O)=O)ccc2O1	-4	2
C[C@H](CO)N1C[C@H](C)[C@H](CN(C)Cc2ccc(C(=O)Nc3ccccc3N)cc2)OCc2cn(nn2)CCCC1=O	-4	3
Cc1ccc(S(=O)(=O)NC[C@@H]2CC[C@H]3[C@H](CN3Cc3ccccc3C(=O)O)O2)cc1	-4	-9
COc1ccc2[nH]c3c(c2c1)CCN1C(=O)CC[C@H]31	8	9
CN(C)C(=O)[C@@H]1[C@@H](CO)[C@@H]2Cn3c(ccc(C4=CCCCC4)c3=O)[C@@H]2N1CC1CC1	5	7
CN1CCN(C(=O)C[C@@H]2CC[C@H](NS(=O)(=O)c3cccc(F)c3)[C@@H](CO)O2)CC1	8	11
O=C(Nc1ccc2c(c1)[C@@H]1C[C@H](CC(=O)N3CCc4ccccc4C3)O[C@@H](CO)[C@@H]1O2)C1CCC1	0	10
C[C@H]1CN([C@@H](C)CO)C(=O)c2cc(-c3cccc(F)c3)cnc2O[C@@H]1CN(C)Cc1cncnc1	22	13
O=C1CNC[C@@H]2[C@H](c3ccc(-c4ccccc4F)cc3)[C@@H](CO)N12	-7	-2
CO[C@H](CN(C)Cc1cc(F)ccc1F)[C@@H](C)CN(C(=O)Nc1ccc(C(F)(F)F)cc1)[C@H](C)CO	-19	-6
C[C@H](CO)N1C[C@H](C)[C@@H](CN(C)C(=O)Nc2ccc3c(c2)OCO3)OCc2ccccc2-c2c(n(C)c3ccccc23)C1=O	7	7
OC[C@@H]1[C@H](c2ccc(-c3cccnc3)cc2)[C@@H]2CN(CC3CCOCC3)CCCCN12	6	-6
C/C=C/c1ccc2c(c1)O[C@H](CN(C)C(=O)Cc1ccncc1)[C@@H](C)CN([C@H](C)CO)S2(=O)=O	-29	-16
O=C(C[C@H]1C[C@H]2c3cc(NS(=O)(=O)c4ccc(F)cc4)ccc3O[C@H]2[C@H](CO)O1)NC1CCCCC1	-17	-13
C[C@@H](NC(=O)C[C@H]1C[C@H]2c3cc(NC(=O)c4ccc5c(c4)OCO5)ccc3O[C@H]2[C@@H](CO)O1)c1ccccc1	14	4
C[C@H](CO)N1C[C@H](C)[C@@H](CN(C)Cc2ccncc2)Oc2cc(-c3cccnc3)ccc2S1(=O)=O	0	-6
COCC(=O)N1CC[C@@H]2[C@H](CO)Nc3ccc(C#Cc4cccc(F)c4)cc3[C@@H]21	6	0
CN(C)CC(=O)N1[C@H](CO)[C@@H](c2ccc(C#CC3CCCCC3)cc2)[C@@H]1C#N	-6	-2
O=C(Nc1cccc(Cl)c1)N1C[C@H]2[C@@H](c3ccccc31)[C@H](CO)N2C(=O)c1ccncc1	6	-2
CN(C)C(=O)C[C@@H]1C=C[C@H](NS(=O)(=O)c2ccccc2)[C@@H](CO)O1	0	3
Cc1ccc(S(=O)(=O)Nc2ccc3c(c2)C(=O)N([C@@H](C)CO)C[C@@H](C)[C@@H](CN(C)C(=O)Nc2ccc(C(F)(F)F)cc2)OCCCC[C@@H](C)O3)cc1	-18	-18
Cc1ccc(S(=O)(=O)N[C@@H]2C=C[C@H](CC(=O)NCCCN(C)C)O[C@H]2CO)cc1	7	2
Next part.
SMILES	Vaccinia stage	Vaccinia stage Venus
C[C@@H]1CN([C@H](C)CO)C(=O)c2cc(C#CC3(O)CCCC3)cnc2O[C@@H]1CN(C)Cc1cncnc1	13	13
CNC[C@H]1Oc2ccc(NC(=O)Nc3ccc(F)cc3)cc2CC(=O)N([C@@H](C)CO)C[C@H]1C	14	2
C[C@H](NC(=O)C[C@@H]1C=C[C@@H](NS(=O)(=O)c2cccc(F)c2)[C@@H](CO)O1)c1ccccc1	11	6
C[C@H](O)C#Cc1ccc2c(c1)O[C@H](CN(C)C(=O)C1CCCCC1)[C@@H](C)CN([C@@H](C)CO)S2(=O)=O	-7	-4
COc1ccc2c3c([nH]c2c1)[C@@H](CO)N(C(=O)c1ccncc1)CC31CCN(C(=O)NC(C)C)CC1	-1	-19
C[C@@H]1CCCCO[C@H](CN(C)S(=O)(=O)c2cccs2)[C@@H](C)CN([C@H](C)CO)C(=O)c2cc(NC(=O)Nc3ccc(F)cc3)ccc2O1	24	12
O=C(C1CCCC1)N1C[C@@H]2N[C@H](C1)C2c1ccc(-c2cncnc2)cc1 (stereo partly specified)	?	-9
CCS(=O)(=O)Nc1ccc2c(c1)C(=O)N(C)[C@@H]1CC[C@H](CC(=O)NCc3ccc(OC)cc3)O[C@H]1CO2	8	4
CO[C@H]1CN(C)C(=O)c2cc(NC(=O)c3ccccc3)ccc2OC[C@@H](C)N(C(=O)CN(C)C)C[C@@H]1C	3	2
O=C(C[C@@H]1C=C[C@@H](NC(=O)c2ccc3c(c2)OCO3)[C@@H](CO)O1)NCc1ccc(F)cc1	10	15
COc1ccc2c3c([nH]c2c1)[C@@H](CO)N(C(=O)C1CC1)CC31CCN(Cc2cccc(F)c2)CC1	?	.
C[C@@H]1CN([C@@H](C)CO)C(=O)CCCn2nncc2CO[C@@H]1CN(C)S(=O)(=O)c1cn(C)cn1	4	11
O=C(C1CCCC1)N1CC(=O)N2[C@H](C1)[C@@H](c1ccc(Br)cc1)[C@@H]2CO	0	3
CO[C@H]1CN(C)C(=O)c2ccc(NC(=O)C3CCC3)cc2OC[C@H](C)N(C(=O)CN(C)C)C[C@@H]1C	3	9
CC=Cc1ccc2n(c1=O)C[C@H]1[C@H](CO)[C@@H](C(=O)N(C)C)N(CC3CCCC3)[C@@H]21 (mixture of isomers)	3	6
C[C@H](CO)N1C[C@H](C)[C@H](CN(C)C(=O)Nc2ccc3c(c2)OCO3)OCc2cnnn2CCCC1=O	11&20	2&20
CO[C@@H]1CN(C)C(=O)c2cc(NC(=O)C3CC3)ccc2OC[C@H](C)N(Cc2ccc(F)cc2)C[C@H]1C	-34	-20
CCCNC(=O)C[C@H]1CC[C@@H]2[C@H](COc3ccc(NC(=O)c4ccccc4)cc3C(=O)N2C)O1	12	13
COc1cccc(S(=O)(=O)N(C)C[C@@H]2Oc3ncc(C#CCN(C)C)cc3C(=O)N([C@@H](C)CO)C[C@@H]2C)c1	-15	-16
C[C@H](CO)N1C[C@H](C)[C@H](CN(C)C(=O)Nc2ccc(C(F)(F)F)cc2)Oc2c(NC(=O)c3nc4ccccc4s3)cccc2C1=O	-24	-15
COc1ccc(CN2C[C@H](O)COC[C@H]3O[C@H](CC(=O)NCCN4CCCC4)CC[C@@H]32)cc1	2	6
C[C@H]1CN([C@@H](C)CO)C(=O)Cc2cc(NC(=O)Cc3ccccc3)ccc2O[C@@H]1CN(C)C(=O)Nc1ccc(C(F)(F)F)cc1	3	2
CC(C)NC(=O)N(C)C[C@@H]1Oc2ccc(NC(=O)Nc3ccc4c(c3)OCO4)cc2C(=O)N([C@H](C)CO)C[C@@H]1C	28	15
COCC(=O)N1C[C@@H]2[C@H](c3ccccc31)[C@H](CO)N2Cc1ccccc1F	9	4
O=C(Nc1ccccc1F)N1C[C@H]2[C@@H](c3ccccc31)[C@H](CO)N2C(=O)c1ccc(F)cc1	8	9
C/C=C/c1cnc2c(c1)C(=O)N([C@@H](C)CO)C[C@@H](C)[C@H](CN(C)C(=O)NC1CCCCC1)O2	21	11
C[C@H]1CN([C@@H](C)CO)C(=O)CCCn2nncc2CO[C@@H]1CN(C)C(=O)Nc1ccnc(N2CCOCC2)c1	2	-1
O=C(Nc1cc(F)ccc1F)N[C@H]1CC[C@H](CCn2cc(C3CCCCC3)nn2)O[C@@H]1CO	3	7

Ordered by heavy-atom count (falling): part of the list above
SMILES	Vaccinia stage	Vaccinia stage Venus
C[C@H](CO)N1C[C@H](C)[C@H](CN(C)C(=O)Nc2ccc(C(F)(F)F)cc2)Oc2c(NC(=O)c3nc4ccccc4s3)cccc2C1=O	-24	-15
C[C@H](CO)N1C[C@H](C)[C@@H](CN(C)C(=O)Nc2ccc3c(c2)OCO3)OCc2ccccc2-c2c(n(C)c3ccccc23)C1=O	7	7
COc1ccc(C#Cc2cnc3c(c2)C(=O)N([C@H](C)CO)C[C@H](C)[C@H](CN(C)C(=O)Nc2c(C)noc2C)O3)cc1OC	15	5
C[C@H](CO)N1C[C@H](C)[C@H](CN(C)Cc2ccc(C(=O)Nc3ccccc3N)cc2)OCc2cn(nn2)CCCC1=O	-4	3
Cc1ccc(S(=O)(=O)Nc2cccc3c2O[C@H](CN(C)Cc2ccccc2)[C@H](C)CN([C@@H](C)CO)C3=O)cc1	12	5
COc1cccc(S(=O)(=O)N(C)C[C@@H]2Oc3ncc(C#CCN(C)C)cc3C(=O)N([C@@H](C)CO)C[C@@H]2C)c1	-15	-16
CO[C@H]1CN(C)C(=O)c2ccc(NC(=O)C3CCC3)cc2OC[C@H](C)N(C(=O)CN(C)C)C[C@@H]1C	3	9
COCC#Cc1cnc2c(c1)C(=O)N([C@H](C)CO)C[C@@H](C)[C@@H](CN(C)C(=O)NC1CCCC1)O2	-4	-2
C[C@@H]1CN([C@@H](C)CO)C(=O)CCCn2nncc2CO[C@@H]1CN(C)S(=O)(=O)c1cn(C)cn1	4	11
O=C(Nc1cccc(Cl)c1)N1C[C@H]2[C@@H](c3ccccc31)[C@H](CO)N2C(=O)c1ccncc1	6	-2
OC[C@@H]1[C@H](c2ccc(-c3cccnc3)cc2)[C@@H]2CN(CC3CCOCC3)CCCCN12	6	-6
O=C(C1CCCC1)N1[C@H](CO)[C@@H]2c3ccccc3N(S(=O)(=O)c3ccccc3)C[C@@H]21	3	-1
O=C(C[C@@H]1CC[C@@H](NC(=O)c2cnccn2)[C@H](CO)O1)NCc1ccccc1F	6	2
O=C1CNC[C@@H]2[C@H](c3ccc(-c4ccccc4F)cc3)[C@@H](CO)N12	-7	-2

Compound activity (PubChem BioAssay)

Some of the compounds tested, so the mix of outcomes need not match the whole.
